Screens deposited in PubChem by Fisher Drug Discovery Resource Center.
NPYLR7 agonist = mosquito NPYLR7 agonism. AID 1259423. activation, % at 10 µM. HEK293T NPYLR7/Galpha15, GCaMP6s calcium fluorescence. 270,000 tested, 0.15% active; in the data active = activation above about 40%;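 note: 0% = vehicle and 100% = reference agonist at the receptor; some compounds past the cut are filed as inactive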
NPYLR7 agonist max-min = recorded beside NPYLR7 agonist, whose call it bears; activation, %; measured here: Max-Min RFU normalised activation; some inactives read as strong as hits;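 span of the calcium signal over five minutes; 0% = vehicle and 100% = native peptide agonist; compound fluorescence can raise it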
Active calls of the source: *; & = joins results of further samples. Only part of the results is shown; the hit share may differ from the screen's.

canonical_smiles	NPYLR7 agonist	NPYLR7 agonist max-min
O=C(c1ccc(Cn2ccnc2)o1)N1CCCC(Nc2ccc(F)cc2)C1 (stereo not drawn)	1	-3
CC1=C(Cc2ccc3c(c2)OCO3)SC2=NS(=O)(=O)CCN21	3	1
Cc1cccc(I)c1C(=O)N1CCSC(C)C1 (stereo not drawn)	3	-5
Cc1cc(C)n(CCCC(=O)N2CCCC3(CC2)CN(C)C(=O)O3)n1 (stereo not drawn)	-5	-4
Cc1cc(C2=NNC(=NCC3CCCO3)SC2)c(C)n1Cc1ccc2c(c1)OCO2 (stereo not drawn)	11	7
O=C(C1=COCCO1)N1CCN(S(=O)(=O)c2ccc(C(F)(F)F)cc2)CC1	-2	-4
Cc1ccn2cc(C(=O)N(C)CC3CCN(CCc4ccc(Cl)cc4)CC3)nc2c1	2	-1
Cc1ccsc1C1SCC(=O)N1CCO (stereo not drawn)	1	-5
COc1cc(Cl)ccc1OCc1cc(C(=O)N2CCN(C)C(=O)[C@@H]2C)no1	5	4
CCN(CC(=O)Nc1c(C#N)c(C)c(C)n1CC1CCCO1)C1CCS(=O)(=O)C1 (stereo not drawn)	4	11
O=C(NC1CCCN(c2ncccn2)C1)c1csc(Cc2ccccc2)n1 (stereo not drawn)	0	-2
CCCCc1ccc(C(=O)NC(Cc2ccccc2)C(=O)Nc2nnc(-c3ccc(F)cc3)s2)cc1 (stereo not drawn)	7	-2
Cc1nc2ccc(C(=O)N(C)Cc3ccccc3)cn2c1N(C)C=O	17	15
O=c1[nH]c2ccc(S(=O)(=O)Nc3ccc4cn[nH]c4c3)cc2s1	0	-3
N#Cc1c2c(c(N3CCOCC3)n3c1nc1ccccc13)CCCC2	-5	8
CN(Cc1ccc(N(C)C)cc1)C(=O)c1ccc(N2CCCS2(=O)=O)cc1	-9	-10
COc1ccc(C(=O)NC2CCN(c3ccccc3C(=O)NC(C)c3ccccc3)CC2)cc1 (stereo not drawn)	-5	-3
C=C(C)Cn1c(C(=O)N2CCCC2)cc2ccsc21	16	9
CC(C)COC(=O)N1CCCCC1c1cc(C(=O)N2CCOCC2)no1 (stereo not drawn)	1	-2
Cc1c(CCNS(=O)(=O)c2ccc(Br)cc2)sc2nc(-c3ccc(F)cc3)nn12	2	-1
CN(Cc1ccc2ccccc2n1)C(=O)c1cc(COc2ccccc2)[nH]n1	6	5
COc1ccc(Cc2nc(CSc3nncs3)cs2)cc1	9	8
CN(Cc1ccc(-n2cccn2)cc1)C(=O)c1cn2c(n1)CNCC2	11	8
C=CCn1c(CCNC(=O)c2ccccc2)nc2ccccc21	-7	-9
COc1ccc(CNS(=O)(=O)c2cc(C)ccc2C)cc1OC	14	4
CC1CN(S(=O)(=O)c2ccc(Br)cc2Cl)CCO1 (stereo not drawn)	6	6
O=C1NCCc2ccc(S(=O)(=O)NC3CCCCC3CO)cc21 (stereo not drawn)	2	2
COc1ccc(NC(=O)C2OC(c3ccccc3)=NN2C(C)=O)cn1 (stereo not drawn)	35	24
Cc1ccc(-n2nnnc2CNC(=O)CC2CCCCC2)cc1C	-1	-1
COc1cccc(C(=O)CSc2nnc(NC(=O)c3ccccc3OC)s2)c1	-2	11

No new results follow: an excerpt of the list.
canonical_smiles	NPYLR7 agonist	NPYLR7 agonist max-min
O=C(c1ccc(Cn2ccnc2)o1)N1CCCC(Nc2ccc(F)cc2)C1 (stereo not drawn)	1	-3
CC1=C(Cc2ccc3c(c2)OCO3)SC2=NS(=O)(=O)CCN21	3	1
Cc1cccc(I)c1C(=O)N1CCSC(C)C1 (stereo not drawn)	3	-5

Other compounds
canonical_smiles	NPYLR7 agonist	NPYLR7 agonist max-min
CN1CCN2CCN(C(=O)CCc3ccc(F)cc3F)CC2C1=O (stereo not drawn)	7	5
Cc1noc(C)c1NC(=O)c1cccc(CN(C)Cc2nccn2C)c1	5	-5
COc1ccccc1C(=O)N1CCC(Cc2ccc(C(F)(F)F)cc2)CC1	2	13
O=C(Nc1ccc(-c2cccc(-c3ccc4c(c3)OCCO4)n2)cc1)c1ccccc1C(F)(F)F	8	5
NC(=O)c1cccc(N)c1	7	-5
COc1ccc(-c2cc3c(=O)n(CC(=O)Nc4ccc(Oc5ccccc5)cc4)ccn3n2)cc1OC	2	-1
COc1ccc2[nH]cc(C3CCN(S(=O)(=O)c4cc(C)c(Cl)cc4C)CC3)c2c1	7	6
CCNC(=S)NCCN1CCN(C(=S)NCC)CC1	0	0
CC(=O)Nc1ccc(S(=O)(=O)N2CCC[C@@H]2C(=O)NC2CCCC[C@H]2NC(=O)c2ccc(F)cc2)cc1 (stereo partly drawn)	25	25
CC(C)(C)SCC(=O)Nc1nnc(-c2ccccc2)s1	0	0
COc1ccc(Cl)cc1NC(=O)CSc1nnc(C)c2cnn(-c3ccc(F)cc3)c12	-7	-15
CC(=O)NCCC(=O)N1CCCc2cc(Br)cc(F)c21	-3	-3
CCCc1cc(C(=O)N2CCC(n3nccc3NC(=O)c3ccccc3C)CC2)n(C)n1	-5	-6
COc1cccc(C(=O)N(CCN2CCOCC2)CC(=O)N(Cc2ccc(F)cc2)Cc2sccc2C)c1	-9	-2
Cc1ccccc1N1C(=O)c2cccc3cccc(c23)C1=O	-1	-4
Cc1nc(N2CCC(C)CC2)c2c3c(sc2n1)CC(C)CC3 (stereo not drawn)	0	-3
CC1(C)CC(=O)C2=C(C1)N(CC1CCCO1)C(=O)C2(NC(=O)c1cccs1)C(F)(F)F (stereo not drawn)	0	-4
Cc1nc2c(=O)n(CC(=O)N3CCc4ccccc43)nc(-c3ccccc3)c2s1	3	4
CC(NCC(=O)Nc1ccc(S(=O)(=O)N2CCCCCC2)cc1)c1ccco1 (stereo not drawn)	21	8
FC(F)(F)c1ccc(-c2nc3ccc(Cl)cn3c2NC2CCCCC2)cc1	5&-1	9&3
CCOC(=O)c1c(NC(=O)C2CCCCC2)sc(C(=O)Nc2ccccc2F)c1C	-8	-5
CCNC(=O)[C@@H]1C[C@H](N)CN1C(=O)C1CCN(Cc2ccco2)CC1	4	-1
CCCc1cc(=O)[nH]c(-n2nc(C)cc2NC(=O)c2cccc(Br)c2)n1	9	7
COCCCN(CC(=O)N1CCc2sccc2C1c1ccc(Cl)cc1Cl)C(=O)c1cccc(OC)c1 (stereo not drawn)	11	18
O=c1c2nnn(Cc3ccccc3)c2ncn1C/C=C/c1ccccc1	0	1
Cc1cc(N2CCN(c3cccc(C(F)(F)F)c3)CC2)nc(SCc2ccc(C(=O)NCCN(C)C)cc2)n1	12	13
CO[C@H]1CN(C(=O)c2cccc3cnccc23)CC[C@H]1N	-1	-11
c1ccc2[nH]c(SCc3ccc4nonc4c3)nc2c1	0	-2
Cc1noc(C)c1C(=O)N1CCC1(C)C(=O)NS(=O)(=O)c1ccccc1Cl (stereo not drawn)	0	0
Fc1ccc(C2=Nc3nc(C(F)(F)F)nn3C(c3cccnc3)C2)cc1 (stereo not drawn)	3	1
CNC(=O)CSc1nc(-c2ccccc2)cc(=O)[nH]1	5	3
COCCN(Cc1ccccc1OS(=O)(=O)c1ccc(OC)cc1)C(=O)c1ccccc1F	-2	4
C=CCNC(=O)c1ccc(N[C@@H]2c3ccccc3C[C@@H]2O)nc1	-1	-2
CCC(C)(NC(=O)c1ccc(F)cc1F)C(=O)OC (stereo not drawn)	2	0
CN(C)c1ccc(C(=O)NCc2csc(Br)c2)cn1	0	0
FC(F)(F)c1cnc(NCc2ccc3c(c2)OCCO3)c(Cl)c1	3	0
Cc1c(C(=O)OCC(=O)NC2CC2)oc2ccccc12	-2	-1
COC1CCN(C(=O)CC2(Cc3ccccc3)C(=O)N(C)c3ccccc32)CC1 (stereo not drawn)	-8	-10
CCS(=O)(=O)N1CCCC(C(=O)Oc2cccnc2)C1 (stereo not drawn)	-2	-3
CC1(Cc2ccc(C(F)(F)F)nc2)C(=O)Nc2ccc(-c3ccc4[nH]ccc4c3)cc21 (stereo not drawn)	0	4
COCCN(C)c1ncnc(N(C)CC2CCCO2)c1N (stereo not drawn)	22	14
CC=CCn1c(=O)c2c(nc3n2C(C)C(C)=NN3CCOC)n(C)c1=O (stereo not drawn)	7	11
CCc1nnc(NC(=O)CSc2nc(C)cc(C)n2)s1	3&0	1&-2
CSCCC(=O)NC1CCCN(CC2CCCCC2)C1 (stereo not drawn)	-1	-3
Cc1ccc(NC(=O)Nc2ccc(N3CCCC3)c(C(=O)NCc3ccccc3)c2)c(C)c1	2	9
COc1ccc(-n2nnc(C(=O)OCc3ccccc3C)c2C)cc1Cl	9	5
CCOC(=O)c1cn[nH]c1S(=O)(=O)N1CCN(C(c2ccccc2)c2ccccc2)CC1	3	-3
Cc1nc2nc(N)nn2c(C)c1CCC(=O)N1CCCCC1	2	-5
Cc1n[nH]c(=O)c(C(=O)NCC(Cc2ccc(F)cc2)C(N)=O)c1C (stereo not drawn)	6	4
Cc1[nH]n(-c2cccc(Cl)c2)c(=O)c1C=NCCc1ccccc1	9	10
COc1nc(-c2ccccc2F)n(-c2ccc(NC(=O)Nc3cccc(Cl)c3)cc2)n1	2	11
C=CCn1c(=O)c2c(nc3n2CC(C)=NN3CCOC)n(C)c1=O	-7	-11
Cc1ccccc1C(=O)N1C(C(=O)NC2CC2)COC12CCN(C(=O)c1ccc(Cl)cc1)CC2 (stereo not drawn)	0	3
O=C1CCC(C(=O)N2CCC(Cn3cccn3)CC2)CN1CCc1ccccn1 (stereo not drawn)	4	1
COC(=O)c1sc(NC(=O)c2cc(OC)c(OC)c(OC)c2)c(C(=O)OC)c1C	-6	-12
CCn1c2ccccc2c2cc(-c3nccn3CCNC(C)=O)ccc21	0	-4
N#CCCN(C(=O)Nc1cccc(N2CCCCCC2)c1)C1CC1	5	5
CCS(=O)(=O)N1CCN(C(=O)c2nn(C)c3c2CCCC3)CC1	21	9
COc1ccc(-n2nnc3c(SCc4ccccc4)ncnc32)cc1	-1	17
NC1=NC(c2ccc(Cl)cc2)n2c(nc3ccccc32)N1 (stereo not drawn)	6	0

(further entries)
canonical_smiles	NPYLR7 agonist	NPYLR7 agonist max-min
Cc1cccc(-n2nc(C)c(C(=O)NCc3ccncc3)c2C(C)C)c1	5	14
CCc1ccc(S(=O)(=O)NCC2(c3cccs3)CCOCC2)s1	-6	-12
CCN(CCc1nc2ccc(OC)cc2[nH]1)C(=O)C1=NNC(=O)CC1	11	7
O=C(Cn1c(CCCO)nc2ccccc21)N1CCc2ccccc21	-2	-2
COCCCn1c(SCc2ccc(CC(=O)OCC(=O)c3ccccc3)cc2)nnc1-c1cc(-c2ccccc2)nc2ccccc12	-9	-14
CCNC(=O)c1cn(CC(C)C)cc(C(=O)NCC(C)c2ccccc2)c1=O (stereo not drawn)	10	2
O=C(CN1C=NC2=NS(=O)(=O)c3ccccc3N21)Nc1cc(F)ccc1F	6	3
CN(Cc1ncc[nH]1)Cc1cc(C(C)(C)C)ccc1O	6	4
Cc1ccc2nc(-c3cccnc3)c(NC(C)(C)CC(C)(C)C)n2c1	1	13
COC(=O)NC1CCN(c2ccccc2C(=O)NCc2ccc(-c3ccccc3)cc2)CC1	-3	-4
O=C(C=Cc1cccs1)c1ccc(O)cc1	-1	1
O=C(NCC1CCCN(C(=O)C2CCOCC2)C1)c1ccc(-c2ccccc2)cc1 (stereo not drawn)	4&10	0&0
c1ccc(CCc2noc(CN3CCC(C4CCCCC4)C3)n2)cc1 (stereo not drawn)	8	8
CC1CC(N[C@@H]2c3ccccc3C[C@@H]2O)CN1Cc1ccccc1 (stereo partly drawn)	-6	-7
CN1[C@@H](c2ccc(Cl)cc2)[C@@H](C(=O)NC2CCC(O)CC2)C[C@@]1(C)C(=O)O (stereo partly drawn)	1	-1
Cc1ccccc1Cc1nc2c(c(=O)[nH]1)CN(C(=O)Nc1c(C(C)C)cccc1C(C)C)CC2	16	26
CCCSc1nc2c(c(=O)n1-c1cc(C)cc(C)c1)SCC2	-5	-3
CN(Cc1cccs1)c1cc(=O)n2cc(Cl)ccc2n1	5	5
CC(C)C[C@@H](N)C(=O)N(Cc1cnn(C)c1)C(C)C	0	7
O=[N+]([O-])c1cccc2ccc(C=Cc3cc(Br)cs3)nc12	9	15
C=CCCc1n[nH]c(Cc2ccccc2)n1	-3	-5
COC(=O)C(C)NC(=O)C=Cc1ccc(Br)o1 (stereo not drawn)	7	10
C[C@@H](C(=O)N1Cc2cnc(-c3ccccc3)nc2C1)n1cnnn1	8	3
CC(C)CNC(=O)C1(C)CCCN1C(=O)CCc1cccs1 (stereo not drawn)	3	-1
COc1ccc2sc(C(=O)NCCCSC)c(Cl)c2c1	-6	-8
CCC(C)NC(=O)c1cc2sc3ccccc3c2s1 (stereo not drawn)	-6	-8
CS(=O)(=O)Oc1cc(Cl)ccc1-c1nc2cc(Cl)ccc2o1	26	33
Cc1ccc2nc(N(CCCN(C)C)C(=O)C3=COCCO3)sc2c1	2	2
Cc1ccc(NC(=O)C2(c3cccc(Cl)c3)CC2)cc1NS(C)(=O)=O	-4	-5

Reprinted at random: 5 compounds from above
canonical_smiles	NPYLR7 agonist	NPYLR7 agonist max-min
C[C@@H](C(=O)N1Cc2cnc(-c3ccccc3)nc2C1)n1cnnn1	8	3
CCN(CCc1nc2ccc(OC)cc2[nH]1)C(=O)C1=NNC(=O)CC1	11	7
Cc1ccc2nc(-c3cccnc3)c(NC(C)(C)CC(C)(C)C)n2c1	1	13
Cc1ccc(NC(=O)C2(c3cccc(Cl)c3)CC2)cc1NS(C)(=O)=O	-4	-5
c1ccc(CCc2noc(CN3CCC(C4CCCCC4)C3)n2)cc1 (stereo not drawn)	8	8
